Ecoli growth = blocks Escherichia coli growth; actives 0.21% (n = 330,000); OD600 absorbance (test concentration not listed); OD600, 23 h; stronger effect = lower value;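 active means OD600 absorbance below the run mean of sample wells minus 3.6 SD, in any replicate, cut at about 0.56 in these data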;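 further: stock transfer was 300 nL into about 60 µL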
UCH37 inh = human UCH37 deubiquitinating enzyme inhibition; Q9Y5K5; purified proteasome/UCH37, Ub-AMC cleavage fluorescence; inhibition, % (test concentration not listed); actives 0.33% (n = 330,000); AID 588478;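 active means mean of two replicates above 20%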;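 further: 0% = compound-free wells with enzyme and 100% = wells lacking proteasome; stock transfer was 100 nL into about 20 µL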
Target sequence (Q9Y5K5 whole entry, looked up): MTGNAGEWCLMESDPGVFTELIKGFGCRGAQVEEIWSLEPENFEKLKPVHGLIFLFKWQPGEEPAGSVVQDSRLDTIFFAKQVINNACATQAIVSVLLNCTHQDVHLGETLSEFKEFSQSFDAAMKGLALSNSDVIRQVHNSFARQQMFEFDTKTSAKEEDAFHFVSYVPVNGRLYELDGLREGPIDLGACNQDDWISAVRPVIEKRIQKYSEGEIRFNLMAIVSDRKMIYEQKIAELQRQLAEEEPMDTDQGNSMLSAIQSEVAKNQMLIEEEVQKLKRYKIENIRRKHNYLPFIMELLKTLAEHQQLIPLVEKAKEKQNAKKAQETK
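Schedule: 30 min plus 25 min, room temperature / Material: human UCH37 within purified proteasomes / Technique: AMC fluorescence intensity at 355/460 nm / Buffer or medium: pH 7.4 Tris-HCl (50 mM) with ovalbumin, ATP-MgCl2, DTT / Controls: wells without proteasome as full block, compound-free enzyme plus substrate as uninhibited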
Beta2AR agonist = human beta-2 adrenergic receptor agonism by FAP | P07550 | Am2.2-beta2AR cells, FAP receptor internalization, flow cytometry; reference of the scale not given here | response, % (test concentration not listed) | actives 0.43% (n = 340,000) | AID 504454;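 active means response above a set limit, near 3 SD of response in nonfluorescent compounds, cut at about 42% in these data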;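 further: stock transfer was 100 nL into about 11 µL; a reference agonist was the positive control; negative values mostly stem from fluorescent compounds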
Target sequence (P07550 whole entry, looked up): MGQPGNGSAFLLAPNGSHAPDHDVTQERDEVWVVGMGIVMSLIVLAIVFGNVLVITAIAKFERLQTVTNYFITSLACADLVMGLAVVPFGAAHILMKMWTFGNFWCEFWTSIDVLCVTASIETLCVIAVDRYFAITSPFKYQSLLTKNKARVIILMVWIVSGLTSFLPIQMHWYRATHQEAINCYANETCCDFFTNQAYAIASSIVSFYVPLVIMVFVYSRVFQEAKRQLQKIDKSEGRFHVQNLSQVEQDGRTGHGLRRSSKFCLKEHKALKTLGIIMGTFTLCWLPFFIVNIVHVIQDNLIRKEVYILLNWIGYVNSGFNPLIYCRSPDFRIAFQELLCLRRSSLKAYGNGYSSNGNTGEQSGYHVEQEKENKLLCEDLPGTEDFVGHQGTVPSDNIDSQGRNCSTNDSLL
HNF4A DNA FP = change in binding of human HNF4 alpha to DNA | activity change, % at 10 µM | HNF4a-FITC DNA binding, fluorescence polarization, 1 h | P41235 | actives 0.3% (n = 360,000) | AID 1224865; in the data active means activity change above about 30%, passing the limit was not always enough;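 further: controls were the assay level and a saturating level of protein; the project sought stronger binding though the title names inhibitors; some compounds called inactive have numbers as strong as hits; positive values seem to mean higher polarization but the record does not say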
Vif A3G = inhibitors of Vif binding to APOBEC3G peptide, primary screen, biochemical, TR-FRET, GST-Vif 1-94, biotin-A3G peptide, dose response retest (AID 1117319) | actives 0.57% (n = 260,000) | inhibition, %; hits with a dose series show IC50 in µM | TR-FRET GST-Vif / biotin-A3G peptide binding; higher % means a stronger effect; test concentration not given here; strong numbers were not always called active;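 active means above the screen mean plus three standard deviations and confirmed in dose response; inconclusive means results disagree or hit not tested in dose response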;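 further: Vif residues 1-94 fused to GST binding biotinylated APOBEC3G peptide 110-148; 0% = full assay without inhibitor and 100% = GST in place of GST-Vif; retest series ran down from 100 µM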
Bfl-1 A1 inh = inhibitors of the anti-apoptotic protein A1, read as caspase activation | actives 0.066% (n = 330,000) | MEF A1-2A-BIM cells, Caspase-Glo 3/7 luminescence, 3 h; percent of clofoctol response, vehicle zero | caspase activation, % (concentration not given with the values) | AID 2462;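 active means over half of replicate activation scores above 10%, or exactly half above 10 with the replicate mean above 10; inconclusive means replicate mean below 10 yet half the replicates above 10; inactive means over half of replicates below 10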;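 further: wells of about 30 µL received 50 nL stock; many hits fall short of the cut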
LANA-H2B inh = blocks KSHV LANA binding to histone H2A/H2B. cell-free LANA-H2A/H2B peptide, fluorescence polarization. inhibition, % (test concentration not listed). actives 0.6% (n = 320,000). AID 2629; in the data active means inhibition mostly above about 10%, no sharp cut-off; inactive means mostly below about 6.7%;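 further: stock transfer was 7.5 nL into about 10 µL; 0% = median of vehicle wells and 100% = median of positive control wells; one replicate is shown; the record names a cut of 25% in any replicate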
The depositor's hits bear a star; u = inconclusive; x = no result given; & = joins results of further samples. Rows are unselected; about 2.1% have a hit in one of these screens.

SMILES | Ecoli growth | UCH37 inh | Beta2AR agonist | HNF4A DNA FP | Vif A3G | Bfl-1 A1 inh | LANA-H2B inh
CC1CCCC(C)N1CCCNC(=O)c1ccc2c(c1)NC(=O)c1ccccc1S2 (stereo not given) | 0.65 | -1.2 | 13 | 5.2 | x | -0.3 | -3.4
O=C(NCCc1ccc(Cl)cc1)c1ccc(S(=O)(=O)N2CCCC2)cc1 | 0.69 | 1.6 | 1 | 1.5 | x | -0.9 | 5.8
Fc1cc(Cl)ccc1NC(=S)NCCN1CCOCC1 | 0.71 | 1.6 | 9 | -4.1 | -3% | -0.1 | 7.0
Cc1ccc(S(=O)(=O)/N=C(/NC(=S)Nc2c(C)n(C)n(-c3ccccc3)c2=O)c2ccccc2)cc1 | 0.73 | -0.3 | -4 | -0.6 | 31% | -0.3 | 2.8
O=C(Nc1cc(C(=O)N2CCN(c3ccccc3)CC2)ccc1Cl)c1cccs1 | 0.69 | 0.1 | -1 | -1.8 | x | 0.3 | -2.9
Cc1csc(NC(=O)CSc2ccc3nnc(CCNS(=O)(=O)c4ccccc4)n3n2)n1 | 0.67 | 7.4 | -7 | 3.0 | 18% | -0.2 | 1.0
COc1cc2c(cc1OC)C(c1cc(Br)ccc1F)N(C(=O)CCl)CC2 (stereo not given) | x | x | 38 | -1.5 | x | 0.4 | -2.3
COc1ccc(N2CCC(N3CCN(C)C(CCO)C3)CC2)cc1 (stereo not given) | 0.67 | 4.3 | -5 | 1.4 | x | 0.9 | -1.7
COc1cc(N(C)C)c([N+](=O)[O-])cc1C(=O)NC(C)CNc1ccc([N+](=O)[O-])cc1Cl (stereo not given) | 0.7 | 0.4 | -7 | 1.2 | x | 0.4 | 0.7
COc1ccc(NC(=S)Nc2ccccc2Cl)cn1 | 0.69 | -0.3 | 5 | 0.3 | -4% | -5.2 | 1.2
COc1ccc(S(=O)(=O)Nc2ccc(S(=O)(=O)N3CCCCC3)cc2)cc1C | 0.74 | 0.3 | -2 | 3.5 | 0% | x | x
Clc1ccc(Nc2ccc(NCc3ccccc3)nn2)cc1 | 0.52 | 1.5 | 13 | -0.2 | x | 1.1 | -4.0
O=C(Oc1ccccc1C(=S)N1CCCCC1)c1cc([N+](=O)[O-])cc([N+](=O)[O-])c1 | 0.72 | 4.7 | -8 | -0.5 | 18% | u | 1.8
Cc1ccc(NC(=O)C(C)Sc2nnc(C)n2CC2CCCO2)cc1 (stereo not given) | 0.68 | 0.0 | -3 | 1.7 | x | x | x
COc1ccc(N(CC(=O)Nc2ccc3c(c2)OCCO3)S(=O)(=O)c2cccc(C)c2)cc1 | 0.71 | 1.3 | 26 | -3.6 | x | x | x
C=CCN(CC=C)C(=O)C1CC(=O)N(c2ccc(Br)cc2)C1 (stereo not given) | 0.73 | 3.3 | 0 | 0.6 | 1% | 0.7 | -1.7
NC(=O)C1CC(=O)N(c2ccc(OCc3ccc(Cl)cc3)cc2)C1 (stereo not given) | 0.67 | 1.9 | 1 | -2.4 | -7% | -1.3 | -5.5
CCCCCCC(O)(c1ccccc1)C(CN1CCOCC1)c1ccccc1 (stereo not given) | 0.65 | 1.2 | 5 | 4.8 | 0% | 0.1 | -5.1
Cc1nnc(SCc2nnc(-c3cccs3)o2)s1 | 0.69 | -1.4 | -14 | -0.4 | x | -0.4 | 9.1
COc1cccc(C2=NOC(C(=O)NC(C)C)C2)c1 (stereo not given) | 0.67 | 5.7 | -9 | 0.1 | 1% | 0.5 | 4.9
Cc1cc(=O)n(C)c(=O)n1CCCCCCN1CCCC1 | 0.69 | 5.2 | 0 | -1.4 | x | -0.3 | 0.5
CCC(c1nnnn1Cc1ccco1)N(Cc1ccccc1OC)Cc1cc2cc(C)ccc2[nH]c1=O (stereo not given) | 0.78 | -4.7 | 2 | 0.2 | u | -0.2 | -4.3
COc1ccccc1C(CNC(=O)c1oc2ccccc2c1C)N1CCCC1 (stereo not given) | 0.63 | -2.5 | 2 | 2.2 | -13% | -0.4 | -4.0
CCOc1ccc(N(CC(=O)NCCSc2ccccn2)S(=O)(=O)c2ccc(Cl)cc2)cc1 | 0.68 | 3.7 | -15 | -0.7 | x | -0.4 | 6.7
Cc1ccc(Nc2nc(N)nc(CSc3ncccn3)n2)cc1 | 0.71 | 1.3 | 7 | 3.8 | -4% | -0.7 | -3.3
CC(=O)C1=NN(c2ccccc2)C2(S1)S/C(=C\c1ccccc1)C(=O)N2c1ccccc1 (stereo not given) | x | 5.4 | 4 | -2.0 | 6% | -0.4 | -1.6
CN(C)S(=O)(=O)c1cccc(NC(=O)CSc2nc3c(cc2C#N)C(=O)CC(C)(C)C3)c1 | 0.67 | 12 | 16 | -0.1 | 2% | 0.0 | -1.6
CC1CCN(S(=O)(=O)c2ccc3c(c2)CCN3C(=O)C2CCC2)CC1 | 0.71 | 3.6 | -25 | 0.8 | -5% | 0.8 | 4.2
N#C/C(=C1/CCCCCN1)c1nc2ccccc2[nH]1 | 0.72 | 3.9 | -13 | 4.0 | 15% | -0.3 | -4.9
CC1=C(/C=N/Nc2ccc([N+](=O)[O-])cc2[N+](=O)[O-])C(C)(C)CCC1 | x | x | -3 | 0.4 | 16% | -0.3 | -5.0
Cc1cc(SCc2ccc(Cl)c(Cl)c2)nc(=O)[nH]1 | 0.69 | 1.9 | 2 | 2.0 | x | -0.1 | -0.4
CCN(Cc1ccccc1)C(=O)c1cc(S(=O)(=O)N2CCOCC2)ccc1N1CCCC1 | 0.66 | 1.9 | 1 | 2.6 | 4% | -0.4 | 3.9
CCN(CC)CCn1c(/N=C/c2cc(Br)ccc2O)nc2ccccc21 | x | x | -3 | 4.3 | 8% | 0.5 | 3.3
COc1ccc(S(=O)(=O)c2ccc(OC)c(OC)c2)cc1OC | 0.76 | 1.2 | 7 | 2.6 | -3% | 0.0 | -12
C/C=C(\C)C(=O)OC1c2c(ccc3ccc(=O)oc23)OC(C)(C)C1OC(C)=O (stereo not given) | 0.73 | -9.6 | -7 | -3.8 | x | -0.4 | 3.9
Cc1cccc(C(=O)NNC(=S)NC(=O)c2cccs2)c1 | x | x | 6 | 2.3 | 5% | 1.0 | -5.3
Cc1cc(C)c(OCC(=O)OC(C)C(=O)NCc2ccccc2)c(C)c1 (stereo not given) | 0.69 | -0.5 | 31 | -0.7 | -3% | x | x
O=C1CCCN1C(=O)COc1ccccc1[N+](=O)[O-] | 0.63 | 0.4 | -4 | 3.7 | -3% | 0.2 | -0.1
O=C(Nc1ccncc1)C1CCN(S(=O)(=O)c2c(Cl)cccc2Cl)CC1 | 0.69 | 2.8 | 9 | 1.5 | 48% | -0.6 | -0.3
O=S(=O)(c1ccc(SCc2ccccc2)nc1)N1CCCCCC1 | 0.69 | -0.2 | 7 | 3.2 | -4% | -0.5 | 2.8

Whole records, looked up by structure. Values in the order: Ecoli growth	UCH37 inh	Beta2AR agonist	HNF4A DNA FP	Vif A3G	Bfl-1 A1 inh	LANA-H2B inh
C/C=C(\C)C(=O)OC1c2c(ccc3ccc(=O)oc23)OC(C)(C)C1OC(C)=O (stereo not given) reads 0.73	-9.6	-7	-3.8	x	-0.4	3.9
O=S(=O)(c1ccc(SCc2ccccc2)nc1)N1CCCCCC1 reads 0.69	-0.2	7	3.2	-4%	-0.5	2.8

5 entries already listed, sorted by the value under Beta2AR agonist, high to low.
SMILES,Beta2AR agonist
O=C(Nc1ccncc1)C1CCN(S(=O)(=O)c2c(Cl)cccc2Cl)CC1,9
COc1ccc(S(=O)(=O)c2ccc(OC)c(OC)c2)cc1OC,7
Cc1cc(SCc2ccc(Cl)c(Cl)c2)nc(=O)[nH]1,2
CCN(Cc1ccccc1)C(=O)c1cc(S(=O)(=O)N2CCOCC2)ccc1N1CCCC1,1
C/C=C(\C)C(=O)OC1c2c(ccc3ccc(=O)oc23)OC(C)(C)C1OC(C)=O (stereo not given),-7

Continuation:
SMILES | Ecoli growth | UCH37 inh | Beta2AR agonist | HNF4A DNA FP | Vif A3G | Bfl-1 A1 inh | LANA-H2B inh
O=[N+]([O-])c1cc(S(=O)(=O)N2CCCC2)ccc1N/N=C/c1cccnc1 | x | x | -13 | 2.3 | x | 0.2 | -2.0
Cc1cccc(NCc2ccc(N(C)C)cc2)n1 | 0.64 | 1.9 | 0 | 1.8 | x | -4.9 | -0.4
CCOC(=O)c1c(C2CC2)csc1NC(=O)COC(=O)c1ccc[n+]([O-])c1 | 0.68 | -4.6 | 4 | 0.4 | x | -0.8 | -4.3
CN(C(=O)COC(=O)c1ccc(Br)o1)c1c(N)n(Cc2ccccc2)c(=O)[nH]c1=O | 0.68 | 4.7 | -1 | 1.2 | 3% | 0.5 | 7.3
Cc1cc(C)c(COCc2cc(/C=N/O)c(C)cc2C)cc1/C=N/O | x | x | 5 | -3.8 | -4% | 0.8 | 0.0
COc1cc(CCC(=O)OCC(=O)Nc2ccc(F)c(F)c2)cc(OC)c1OC | 0.65 | 1.3 | -7 | 1.1 | x | u | 6.6
COc1ccc(-c2csc3ncnc(N4CCN(c5cccc(Cl)c5)CC4)c23)cc1 | 0.73 | 0.7 | 10 | 2.1 | x | 0.9 | -4.7
C/C(=N/OC(=O)c1ccccc1)c1oc(C)nc1C | x | x | -1 | 0.8 | x | 0.6 | 6.4
Cc1nnc(NC(=O)C2CCCO2)s1 (stereo not given) | 0.71 | 4.5 | -2 | 0.1 | 5% | 0.2 | -2.3
CSc1nc(C)cc(OCC#N)n1 | 0.73 | -0.4 | -4 | -0.9 | -4% | 1.1 | 3.7
COc1ccc(-c2c(C)oc3c(CN4CCCCC4C)c(O)ccc3c2=O)cc1OC (stereo not given) | 0.71 | -187 | 4 | 5.3 | 0% | -0.9 | -4.3
O=C(NNC(=O)C1CCCO1)c1ccc(F)cc1 (stereo not given) | 0.64 | 3.0 | -8 | -6.1 | -7% | 0.0 | -8.2
CCC(=O)Nc1cc(NC(=O)CSc2nnc(C(C)C)n2CC)ccc1C | 0.73 | -0.3 | -3 | 4.5 | -1% | -0.2 | 2.2
COc1ccc(NC(=S)N(Cc2ccc(Cl)cc2)Cc2ccc(C(=O)O)cc2)cc1Cl | 0.65 | 4.9 | 5 | 4.5 | 15% | 0.4 | -1.0
O=C1c2ccccc2-n2c1nc1ccccc1c2=O | 0.64 | 6.5 | -4 | -1.0 | 0% | -3.0 | 2.3
COc1cc(/C=C2\N=C3CCCCCN3C2=O)ccc1O | 0.69 | 12 | 10 | 47* | -6%&-6% | -1.1 | -12
OCC[C@@H]1C[C@H](O)[C@@H](O)[C@]2(CCCCO2)O1 | x | 4.2 | 9 | -1.8 | x | 0.2 | 1.0
CCC(C)[C@H](NC(=O)N1CC(=O)Nc2ccccc21)C(=O)N[C@@H](C(=O)O)c1ccccc1 (stereo not given in full) | 0.66 | 0.2 | 24 | 0.8 | x | 2.2 | 0.2
COc1ccc(N2CC(C(=O)N[C@@H](C)C(=O)NCc3ccccc3OC)CC2=O)cc1 (stereo not given in full) | 0.7 | -1.9 | -5 | 0.1 | x | -0.3 | -2.1
CCC(CC)C(=O)Nc1cccc(C(=O)N2CCOCC2)c1 | 0.71 | 2.8 | 2 | 2.1 | 77% | 0.7 | -6.9
O=C1CCC(C(=O)N2CCC(O)(c3ccccc3)CC2)CN1CCc1ccccc1 (stereo not given) | 0.71 | 3.1 | -2 | -4.3 | x | 0.2 | 2.7
Cc1occc(=O)c1OC(=O)Nc1ccccc1 | 0.73 | -6.4 | -3 | 2.1 | 11% | -6.5 | 5.2

Bioassay records as filed in PubChem.
